HNF4A DNA FP: change in binding of human HNF4A to DNA, primary screen, biochemical, fluorescence polarization, FITC-DNA | activity change, % at 10 µM | 1 h | AID 1224865, 2016 | 360,000 tested, 0.3% active | Hepatocyte nuclear factor 4-alpha (Homo sapiens), P41235; in the data active = activity change above about 30%, passing the limit was not always enough;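 note: controls were the assay level and a saturating level of protein; the project sought stronger binding though the title names inhibitors; some compounds called inactive have numbers as strong as hits; positive values seem to mean higher polarization but the record does not say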
Target sequence (P41235 whole entry, looked up): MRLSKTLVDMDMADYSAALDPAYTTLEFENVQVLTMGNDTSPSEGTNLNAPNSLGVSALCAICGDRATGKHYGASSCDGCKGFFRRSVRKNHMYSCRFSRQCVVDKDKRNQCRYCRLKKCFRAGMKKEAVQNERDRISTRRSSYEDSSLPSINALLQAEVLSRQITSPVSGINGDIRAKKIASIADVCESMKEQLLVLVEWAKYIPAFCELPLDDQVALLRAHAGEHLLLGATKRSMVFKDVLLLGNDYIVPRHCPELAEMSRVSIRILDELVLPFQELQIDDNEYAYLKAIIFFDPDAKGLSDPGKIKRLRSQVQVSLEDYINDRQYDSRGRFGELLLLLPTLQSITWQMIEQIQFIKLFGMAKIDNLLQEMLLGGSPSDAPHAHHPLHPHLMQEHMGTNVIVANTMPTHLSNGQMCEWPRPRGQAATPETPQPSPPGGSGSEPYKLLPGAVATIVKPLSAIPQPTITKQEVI
* marks the source's active call; other numbers are inactive results. These rows are one share of the data; the hit share may differ from the screen's.

SMILES	HNF4A DNA FP
O=C(Nc1nnc([C@@H]2C[C@H](O)[C@@H](CO)O2)s1)Nc1ccc(F)cc1F	-2.5
CN(C)c1cccc(Nc2ccc(-c3ccc(OC(F)(F)F)cc3)cn2)c1	1.3
CCOc1ccc(NC(=O)CN2CCN(c3ccc(F)cc3)CC2)cc1S(=O)(=O)N1CCCC1	1.7
O=C(Nc1nnc([C@H]2C[C@H](O)[C@@H](CO)O2)s1)c1cccc(OC(F)(F)F)c1	4.8
COCCNC(=O)C1(C)CCCN(C(=O)c2ccco2)C1 (stereo unspecified)	-3.1
CCCCn1nnnc1C1(C)CCC(=O)N1CCCN1CCOCC1 (stereo unspecified)	-0.6
CC(C)CNC(=O)C1(C)CCCN1C(=O)c1cc2ccccc2s1 (stereo unspecified)	4.2
CC(C)CN1C(=O)CSCC1(C)C(=O)NC(C)C (stereo unspecified)	3.5
Cc1noc(C)c1-c1ccc(C(=O)NCc2ccncc2)c2occc12	3.0
O=c1cc(CN2CCN(c3ccc(Cl)c(Cl)c3)CC2)c2c(ccc3ccccc32)o1	-1.2
CC(C)(O)C#Cc1cccc(-c2nc(C(=O)NCCCN3CCOCC3)cc3c2[C@H](CCO)N(S(=O)C(C)(C)C)C3)c1 (stereo partly specified)	2.2
CCc1nc2ccc(C(=O)Nc3ccc4c(c3)OCC(=O)N4)cn2c1N(CC)CCOC	-2.4
Cn1c(-c2ccccc2)c(Sc2ccccc2)c2cc(-c3ccc4cc[nH]c4c3)ccc21	0.4
CCCCNC(=O)C[C@@H]1C[C@@]2(C(=O)OC)CC(C)(C)CC=C2N(Cc2ccco2)C1=O	0.1
CCOC(=O)[C@]12CCC=C1N(Cc1ccc3c(c1)OCO3)C(=O)[C@H](CC(=O)N1CCN(C(=O)c3ccco3)CC1)C2	4.1
CN1OC[C@@H]2CN(S(=O)(=O)c3ccccc3)[C@H](c3ccc(N4CCCCC4)cc3)C[C@@H]21	7.9
c1ccc(-c2cc3nc(NCc4ccc5c(c4)OCO5)ccn3n2)cc1	-4.5
Clc1ccc(-c2cc3nc(NCc4cccc(Cl)c4)ccn3n2)cc1	4.4
O=C(Nc1nnc([C@H]2C[C@H](O)[C@@H](CO)O2)s1)c1ccccc1F	-1.0
C[C@H](CO)N1C[C@H](C)[C@@H](CN(C)C(=O)c2ccc(N3CCN(C)CC3)cc2)OCc2cnnn2CCCC1=O	-2.4

In the list so far, these contain a Cl atom:
SMILES	HNF4A DNA FP
O=c1cc(CN2CCN(c3ccc(Cl)c(Cl)c3)CC2)c2c(ccc3ccccc32)o1	-1.2
Clc1ccc(-c2cc3nc(NCc4cccc(Cl)c4)ccn3n2)cc1	4.4

(more compounds)
SMILES	HNF4A DNA FP
Cc1ccc(S(=O)(=O)N2C[C@H]3C(=O)C[C@@H](c4ccccc4)N(S(=O)(=O)c4cccc(C)c4)[C@H]3C[C@H]2c2ccccc2)cc1	0.1
CCNC(=O)C1(C)CCCN(Cc2noc(-c3c(C)noc3C)n2)C1 (stereo unspecified)	0.6
CC(C)Nc1nc(NCCOc2ccccc2Cl)c2sccc2n1	-2.5
COc1cccc(CNC(=O)[C@@H]2CCCN2C(=O)[C@H]2CCCCN2C(=O)c2cccs2)c1	0.9
O=C(Nc1ccc2c(c1)OCCO2)C(c1ccncc1)n1c(=O)c(-c2cc3ccccc3[nH]2)nc2ccccc21 (stereo unspecified)	6.6
CCCS(=O)(=O)NC(=O)C1(C)CCN(C(=O)COc2ccccc2)C1 (stereo unspecified)	-0.1
CNC(=O)C1(C)Cc2c(-c3ccc4c(c3)OCO4)ccnc2O1 (stereo unspecified)	0.1
CC(C)N(C)c1ncnc2c1ncn2[C@H]1CN(Cc2cccnc2)C[C@@H](CO)O1	0.6
Cc1cc(C)c2nc(-c3ccccc3)ccc2c1	0.9
COc1cc(C(=O)NCC(c2cccs2)N2CCOCC2)ccc1OCc1ccc(Cl)cc1 (stereo unspecified)	1.4
CN1CCN(C2CN(C3CCCC3)S(=O)(=O)C2)CC1 (stereo unspecified)	-0.3
CCCCNC(=O)C[C@@H]1C[C@@]2(C(=O)OCC)CCC=C2N(Cc2ccc3c(c2)OCO3)C1=O	-5.1
COc1cccc(S(=O)(=O)Nc2ccc3c(c2)C(=O)N(C)C[C@H](OC)[C@H](C)CN(Cc2ccccc2F)[C@@H](C)CO3)c1	-5.1
CC1(C(=O)NS(=O)(=O)c2cccs2)CCN1C(=O)CC1CCCC1 (stereo unspecified)	-1.4
CSCCC(c1nc2ccccc2[nH]1)n1c(=O)c(-c2ccco2)nc2ccccc21 (stereo unspecified)	8.1
Cc1nc2c(OCc3cc(Cl)cc(Cl)c3)cccn2c1N(C)C(=O)CCC1CCCC1	5.5
CCCS(=O)(=O)NC(=O)C1(C)CCN(C(=O)c2ccc(OC(F)F)cc2)C1 (stereo unspecified)	2.1
O=C(NC1CCCCC1)C(c1ccc(C(F)(F)F)cc1)n1c(=O)c(-c2ccccc2)nc2ccccc21 (stereo unspecified)	-2.8
CCOC(=O)C[C@@H](C#N)NC(=O)[C@@H]1CCCN1C(=O)[C@@H](NC(=O)c1ccc(N)c(Cl)c1)C(C)(C)C	1.6
CC(C)c1ccc(C2OC(CCc3ccccc3)Cc3[nH]c(=S)[nH]c(=O)c32)cc1 (stereo unspecified)	-1.2
CC(C)CC1C(=O)N(Cc2cn(CCC3OCCO3)nn2)CCS(=O)(=O)N1Cc1ccc(-c2ccc(Cl)c(Cl)c2)cc1 (stereo unspecified)	-2.0
CCOC(=O)[C@]12CCCC=C1N(Cc1ccco1)C(=O)[C@H](CC(=O)N1CCN(C(=O)c3ccco3)CC1)C2	1.6
CC1(Oc2ccc(-n3ccnc3)cc2)CCN(Cc2cccn2-c2nccs2)C1 (stereo unspecified)	2.5
CCOC(=O)C1=C[C@@H](C)N(S(=O)(=O)c2ccc(C)cc2)[C@H]1c1ccccc1	2.7
COc1ccc(C(NC(=O)C2CCN(CCCOc3ccccc3)CC2)c2ccccn2)cc1 (stereo unspecified)	8.2
COC(=O)C[C@@H]1C=C[C@H](NC(=O)Cc2ccccn2)[C@@H](CO)O1	-2.7
COc1cccc(C(O)c2ncc(-c3ccc4ccccc4c3)[nH]2)c1 (stereo unspecified)	-3.8
CCOc1ccc(CCN2C(=O)C(=O)N([C@@H](CC(C)C)CN3CCC[C@H]3CN3C(=O)C(=O)NC[C@@H]3Cc3ccccc3)C[C@@H]2Cc2ccc(O)cc2)cc1	2.4
CC(C)C[C@H]1CNC(=S)N1C[C@H]1CCCN1C[C@H](Cc1ccccc1)N1C[C@H](Cc2ccc(O)cc2)N(CCc2ccccc2)C1=S	-1.6
COc1ccc(C2=Nc3ccccc3NC(=O)C2N(C(=O)c2ccnc3ccccc23)c2ccccc2)cc1 (stereo unspecified)	-0.1
COc1ccc(CN2C(=O)C(C)Nc3ncnc(N4CCc5ccccc5C4)c32)cc1 (stereo unspecified)	5.1
CC(C)NC(=O)OC1CC2CC1[C@H]1CCCCN1C2=O (stereo partly specified)	7.0
COc1cc(CN2C[C@@H](CO)O[C@@H](n3cnc4c(NC5CC5)ncnc43)C2)cc(OC)c1OC	-0.7
CN(C(=O)C1Cc2c(-c3ccccc3Oc3ccccc3)ccnc2O1)c1ccccc1 (stereo unspecified)	4.9
C[C@@H](O)CNC(=O)c1[nH]cnc1C(=O)N[C@H](C)c1ccccc1	0.3
CCC(=O)N1CCCC(C(=O)NCc2ccc(C(C)C)cc2)CC1 (stereo unspecified)	-1.9
O=S1(=O)CC(N2CCN(CCO)CC2)CN1C1CCCC1 (stereo unspecified)	-1.4
Cc1cc(NC(=O)OC(C)(C)C)c(-n2nnnc2C(C(=O)c2ccc3c(c2)OCO3)N2CCN(c3ccccn3)CC2)cc1C (stereo unspecified)	5.5
CC(=O)Nc1cc(-c2ccc(N3CCN(C)CC3)cc2)cn2c(-c3cccc(C(=O)N(C)C)c3)cnc12	3.1
CCNC(=O)C1(C)CCN(Cc2ccc(C(F)(F)F)cc2)C1 (stereo unspecified)	0.7

Next section, overlapping the part above by 4 compounds.
SMILES	HNF4A DNA FP
O=S1(=O)CC(N2CCN(CCO)CC2)CN1C1CCCC1 (stereo unspecified)	-1.4
Cc1cc(NC(=O)OC(C)(C)C)c(-n2nnnc2C(C(=O)c2ccc3c(c2)OCO3)N2CCN(c3ccccn3)CC2)cc1C (stereo unspecified)	5.5
CC(=O)Nc1cc(-c2ccc(N3CCN(C)CC3)cc2)cn2c(-c3cccc(C(=O)N(C)C)c3)cnc12	3.1
CCNC(=O)C1(C)CCN(Cc2ccc(C(F)(F)F)cc2)C1 (stereo unspecified)	0.7
CCCCn1nnnc1C(c1cc2ccccc2o1)N1CCCCC1 (stereo unspecified)	6.1
O=C1c2ccccc2C(c2nc3ccccc3[nH]2)N1c1ccccc1 (stereo unspecified)	0.5
CN(C)c1ccc(-c2ccnc3c2CC(C)(C(=O)Nc2cccc(N(C)C)c2)O3)cc1 (stereo unspecified)	4.2
CCOC(=O)[C@]12CCCC=C1N(Cc1ccco1)C(=O)[C@H](CC(=O)N1CCOCC1)C2	3.2
O=C(COC(=O)c1ccc(O)cc1)NC1CCCCCCC1	6.3
Cc1ccc(Cc2c(C3CCCCC3)nc3ccc(Br)cn23)cc1	6.1
CC(=O)CC1c2cc(F)ccc2C=C(c2ccsc2)N1c1ccc(C#CC2(O)CCCCC2)cc1 (stereo unspecified)	3.1
Cc1ccsc1C(=O)N1CCC1(C)C(=O)NCC(C)(C)C (stereo unspecified)	-3.3
CC1(C(=O)NCc2ccccc2)CSCC(=O)N1Cc1ccco1 (stereo unspecified)	2.8
COc1ccc(Cl)cc1CC1(C)C(=O)Nc2c(Cl)cccc21 (stereo unspecified)	0.2
CC(=O)Nc1cc(-c2cccnc2)cn2c(-c3ccc(F)cc3)cnc12	0.0
CCc1ccc(C(O)c2ncc(-c3ccccc3F)[nH]2)cc1 (stereo unspecified)	4.0
COCCNC(=O)C1(C)CCCN(C(=O)c2ccc3snnc3c2)C1 (stereo unspecified)	-0.9
OC[C@@H]1CN(Cc2ccc(-c3ccccc3)cc2)C[C@H](n2cnc3c(NC4CCC4)ncnc32)O1	-5.5
O=C(O)c1ccc2c(c1)S(=O)(=O)c1cc(N3CCN(c4cnccn4)CC3)ccc1C2=O	17
O=C1NC[C@H](CCCCN2C[C@H](Cc3ccc(O)cc3)N(CCC3CCCCC3)C(=O)C2=O)N(CCc2ccccc2)C1=O	0.9
COc1ccc(C)c2sc(N(CCN(C)C)C(=O)c3ccc(S(=O)(=O)N(C)c4ccccc4)cc3)nc12	-0.7
CC(=O)c1cccc(NC(=O)c2ccc(-c3c(C)noc3C)c3ccoc23)c1	-2.9
Cc1cccnc1CNC(=O)C1(C)CCCN1CC(C)C (stereo unspecified)	1.9
CC1(C(=O)Nc2cccc3ncccc23)CCN1C(=O)C1(c2ccccc2)CC1 (stereo unspecified)	-0.3
OC(c1ccccc1)c1ncc(-c2ccc(Cl)cc2)[nH]1 (stereo unspecified)	0.9
CC1(C(=O)NS(=O)(=O)c2ccccc2OC(F)(F)F)CCN1C(=O)c1ccco1 (stereo unspecified)	4.2
COc1ccc(S(=O)(=O)NC(=O)C2(C)CCN2C(=O)Cc2ccccc2Cl)cc1 (stereo unspecified)	3.1
COc1cc(-c2cc(NC=O)c3ncc(-c4cccc(C(F)(F)F)c4)n3c2)cc(OC)c1OC	11
c1ccc(Cn2ncc3c(N4CCN(c5ccccc5)CC4)ncnc32)cc1	6.9
CC1(C(=O)NS(=O)(=O)Cc2ccccc2)CCN1C(=O)C/C=C/c1ccccc1 (stereo unspecified)	-0.9
CC(C(=O)NC1CCCC1)n1c(C2CCCC2)nc2ccccc21 (stereo unspecified)	3.9
COc1cccc(-c2cnc(C(O)c3ccc(Cl)cc3C)[nH]2)c1 (stereo unspecified)	-4.6
CCCC[C@@H]1Cc2[nH][nH]c(=O)c2[C@H](c2ccc(C(C)C)cc2)O1	-1.1
CC1(C)OC(=O)C2=C(C[C@@H](CCc3ccccc3)O[C@H]2C2CCCC2)O1	2.3
CCCC(=O)N1CCC1(C)C(=O)Nc1ccc(-n2cccc2)cc1 (stereo unspecified)	3.3
COc1ccccc1NC(=O)Nc1ccnn1C1CCN(C(=O)C2CCOC2)CC1 (stereo unspecified)	-0.1
CCOC(=O)C1(C)CCCN(C(=O)c2c(F)cccc2F)C1 (stereo unspecified)	1.4
CC(=O)Nc1ccc(CNc2nc(NC(C)C)nc3cc(-c4ccccc4)sc23)cc1	3.7
COc1cccc(-c2cc3nc(NCc4cccnc4)n(C)c(=O)c3s2)c1	6.3
COc1ccc(CNC(=O)C2Cc3c(-c4cccc(F)c4)ccnc3O2)cc1OC (stereo unspecified)	3.8
CC(C)(C)OC(=O)Nc1ccccc1-n1nnnc1C(C(=O)c1ccc(F)cc1)N1CCN(c2ccccn2)CC1 (stereo unspecified)	2.1
COC(=O)[C@@]12C[C@@H](CC(=O)N3CCCC3)C(=O)N(Cc3ccc4c(c3)OCO4)C1=CCC(C)(C)C2	-2.3
CC(C)(C(=O)N1CCC1(C)C(=O)NC1Cc2ccccc2C1)c1ccccc1 (stereo unspecified)	-2.5
CC(=O)Nc1cc(-c2ccccc2)cn2c(-c3cccc(C(C)=O)c3)cnc12	5.2
C#Cc1ccc(NC(=O)C2(C)CCN2C(=O)c2ccccc2CCc2ccccc2)cc1 (stereo unspecified)	-0.8
OC(c1ccccc1)c1nc(/C=C/c2ccccc2)cs1 (stereo unspecified)	1.9
Cc1ccc(OCC(=O)OCC(=O)NC2CCCCCC2)cc1C	-0.6

4 entries from above in another layout:
Cc1cc(NC(=O)OC(C)(C)C)c(-n2nnnc2C(C(=O)c2ccc3c(c2)OCO3)N2CCN(c3ccccn3)CC2)cc1C (stereo unspecified)
  HNF4A DNA FP: 5.5

CC(=O)Nc1cc(-c2ccc(N3CCN(C)CC3)cc2)cn2c(-c3cccc(C(=O)N(C)C)c3)cnc12
  HNF4A DNA FP: 3.1

CCNC(=O)C1(C)CCN(Cc2ccc(C(F)(F)F)cc2)C1 (stereo unspecified)
  HNF4A DNA FP: 0.7

CCCCn1nnnc1C(c1cc2ccccc2o1)N1CCCCC1 (stereo unspecified)
  HNF4A DNA FP: 6.1

Source: PubChem
